# GLA inh pH 4.5: qHTS Assay for Inhibitors of Human alpha-Galactosidase at pH 4.5; purified enzyme, 4-MU-alpha-Gal fluorescence, pH 4.5; activity change, negative = inhibition, % at 105 µM; Alpha-galactosidase A (Homo sapiens), P06280; AID 1467, 2008; 230,000 tested, under 10 active; inconclusive = small, poorly fitted or top-dose-only inhibition, or a rising curve; inactive = flat fitted curve, though single readings scatter; no compound was filed as active;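 note: 0% = full activity with enzyme and -100% = basal without enzyme; dose as in the result columns while the protocol names 77 µM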
# miR-21 FLuc: qHTS Assay for Modulators of miRNAs and/orActivators of miR-21; HeLa miR-21 FLuc reporter, luciferase, 48 h; Potency, µM (series often up to 38.3 µM), for inactives: at the highest dose reporter change, positive = more light; 340,000 tested, under 10 active; AID 2288, 2010; active = well fitted rising curve with a large enough effect; inconclusive = small, poorly fitted or top-dose-only effect; inactive = no such curve, though single readings can be large or run the other way;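 note: % of control where 0% means no effect; miR-21 action dims this reporter so a rising signal means less miR-21 action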
#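 HeLa cells endogenously expressing miR-21, stably carrying CMV-driven firefly luciferase with a downstream miR-21 binding site, 2000 cells/well. Titrations up to approximately 40 uM, 48 hours; luciferase luminescence read.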
# Rango-impB inh: qHTS Assay for Inhibitors of Rango (Ran-regulated importin-beta cargo) - Importin beta complex formation. Importin subunit beta-1 (Homo sapiens), Q14974. actives 0.031% (n = 340,000). Rango CFP/YFP FRET sensor + importin beta, 45 min. Potency, µM (series often up to 92.2 µM), inactives show top-dose inhibition of complex formation. AID 540263, 2011; active = rising FRET ratio curve, often small or poorly fitted; inconclusive = mostly compound fluorescence or quenching in the first reads; inactive = flat curves in all reads;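 note: potency is the fitted concentration of half-maximal effect; 0% = DMSO wells and 100% = buffer wells lacking importin beta; nearly all actives have a fitted effect of over 15% in size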
# Target sequence (Q14974 whole entry, looked up): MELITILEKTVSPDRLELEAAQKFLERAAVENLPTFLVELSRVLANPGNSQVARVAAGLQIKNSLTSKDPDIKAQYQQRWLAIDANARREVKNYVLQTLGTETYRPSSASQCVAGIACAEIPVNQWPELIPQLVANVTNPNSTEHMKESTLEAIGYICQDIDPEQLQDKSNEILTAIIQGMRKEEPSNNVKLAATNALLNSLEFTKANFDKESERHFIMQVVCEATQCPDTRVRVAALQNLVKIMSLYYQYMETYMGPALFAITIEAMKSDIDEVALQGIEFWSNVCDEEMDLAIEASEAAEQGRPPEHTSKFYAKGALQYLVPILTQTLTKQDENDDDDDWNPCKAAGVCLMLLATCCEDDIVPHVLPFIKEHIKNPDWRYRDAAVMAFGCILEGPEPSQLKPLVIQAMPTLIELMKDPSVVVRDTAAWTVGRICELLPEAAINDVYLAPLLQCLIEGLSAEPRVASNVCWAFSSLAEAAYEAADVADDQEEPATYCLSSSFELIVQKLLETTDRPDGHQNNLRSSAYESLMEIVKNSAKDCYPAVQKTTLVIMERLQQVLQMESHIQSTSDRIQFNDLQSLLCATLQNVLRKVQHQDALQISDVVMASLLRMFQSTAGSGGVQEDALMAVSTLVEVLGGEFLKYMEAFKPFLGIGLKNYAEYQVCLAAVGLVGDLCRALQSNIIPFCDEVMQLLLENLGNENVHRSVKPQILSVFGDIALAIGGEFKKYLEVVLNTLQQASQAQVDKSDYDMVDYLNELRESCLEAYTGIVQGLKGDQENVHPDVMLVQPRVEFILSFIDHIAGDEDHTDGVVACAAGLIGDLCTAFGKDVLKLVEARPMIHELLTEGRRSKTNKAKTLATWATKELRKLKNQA
#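 FRET biosensor (snurportin 1 IBB flanked by EYFP and cerulean), 50 nM, with compound 5 min, then 0.125 microM importin beta in PBS, 1 mM DTT, 0.02% Tween-20, 0.1% BSA. CFP/YFP ratio read after 45 min at room temperature; pre-read flags interference.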
# Rango dissoc inh: qHTS Assay for Inhibitors of RanGTP induced Rango (Ran-regulated importin-beta cargo) - Importin beta complex dissociation; Biochemical FRET Rango-importin beta, RanGTP-induced dissociation; Snurportin-1 (Homo sapiens) + GTP-binding nuclear protein Ran (Homo sapiens) + Importin …; actives 0.071% (n = 340,000); Potency, µM (highest dose often 46.1 µM), without a hit: top-dose activity change, negative = inhibition; AID 540253, 2011; active means falling FRET ratio curve, often poorly fitted, with flat reads before Ran was added; inconclusive means other falling curves, or compound fluorescence or quenching; inactive means flat or rising ratio curve;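 note: potency is the fitted concentration of half-maximal effect; % of control where 0% means no effect; nearly all actives have a fitted effect of over 45% in size; -100% = wells without RanGTP and RCC1; the record marks most hits as doubtful in a second field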
#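 Compounds sat 5 min at room temperature with 0.1 uM Rango biosensor plus 0.25 uM importin beta, then FRET pre-read. RanGTP-RCC1 (0.6 uM Ran, 2mM GTP, 0.2 uM RCC1) added for 45 min, and the CFP/YFP post-read measured blocked complex dissociation.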
# An asterisk follows results filed as active; ? = inconclusive; · = no result given; & = joins results of further samples. Some of the compounds tested; the hit share may differ from the screen's.
SMILES,GLA inh pH 4.5,miR-21 FLuc,Rango-impB inh,Rango dissoc inh
Cc1ccc2cc(CN(Cc3ccccc3)Cc3nnnn3C3CCCC3)c(=O)[nH]c2c1,-11,0%,-2.4%,0%
CC(=O)Nc1cccc(Oc2ncnc3scc(-c4ccc(C)cc4)c23)c1,-9,19%,0.0%,5%
CN1c2ccccc2C(C)(C)C12CC(c1cccc(S(=O)(=O)N3CCCC3)c1)=NO2 (stereo not drawn),-6,19%,?,-12%
CCC(=O)C1CCCN(C(=O)c2ccc(OC)c(OC3CCN(C(C)=O)CC3)c2)C1 (stereo not drawn),·,-2%,-2.9%,-1%
O=C(N/N=C/c1ccc(C(F)(F)F)cc1)c1ccc(O)cc1,-16,-51%,8.9%,1%
C=CCn1c2ccccc2c(=O)c2cc(C#Cc3ccccn3)ccc21,·,·,?,?
COc1cc(C(C[N+](=O)[O-])c2c(C)[nH]c3ccccc23)ccc1O (stereo not drawn),1,-11%,?,-18%
c1ccc(CN2CCN(C(c3ccccc3)c3nnnn3Cc3ccccc3)CC2)cc1 (stereo not drawn),-6,-2%,-1.7%,7%
CN(c1ccc(C(=O)N2CCCCC2)cc1)S(=O)(=O)c1ccccc1,-1,1%,-0.6%,35%
Cc1ccc(C)c(N/C(N)=N/c2nc(C)cc(C)n2)c1,17,12%,-2.6%,0%
COC(=O)/C=C1\SC(=NC(=O)c2cccc(Cl)c2)NC1=O,-22,-4%,-0.6%,16%
COc1cc2cc(C(=O)N(C)Cc3ccccc3)[nH]c2cc1OC,·,-1%,0.0%,-6%
COc1cccc(CSc2nnc(CSc3nc4nc(C)cc(C)n4n3)s2)c1,8,-7%,-0.1%,-5%
CC(=O)c1ccccc1NC(=O)CCN1C(=O)C2CCCCC2C1=O (stereo not drawn),·,·,-2.7%,-8%
Cc1cc(O)c(C(=O)/C=C/c2ccccc2Br)c(=O)o1,·,-35%,?,?
N#CC[C@H](Cc1ccccc1)N1CCN(Cc2ccccc2)CCC1=O,·,-2%,1.9%,4%
O=C(CN1CCN(Cc2ccc3c(c2)OCO3)CC1)Nc1ccc(N2CCOCC2)cc1,1,-9%,-0.8%,-6%
COc1ccc(C(CNC(=O)COc2ccccc2C)N2CCCC2)cc1 (stereo not drawn),·,-4%,?,3%
CCCNC(=O)CC1Sc2ccccc2NC1=O (stereo not drawn),4,-11%,6.7%,29%
Cc1nc(C)c(C(=O)OCC(=O)NCCc2ccc(S(N)(=O)=O)cc2)s1,·,·,-2.9%,3%
CC(C)(O)CCc1c(-c2ccc(O)cc2O)oc2c3c(cc(O)c2c1=O)OC(C)(C)C=C3,·,·,8.9%,-2%
CCS(=O)c1ccccc1C(=O)O (stereo not drawn),-1,4%,?,-6%
Cc1cc(C)c(NC(=O)COC(=O)c2c(C)noc2C)c(Cl)c1,·,·,3.0%,10%
CSc1nc(-c2ccco2)cc(-c2ccccc2)c1C#N,0,-2%,1.0%,-7%
C=C(C)C1CC=C(C)/C(=N/NC(=O)c2ccccc2[N+](=O)[O-])C1 (stereo not drawn),10,1%,0.3%,11%
CCC(C)NC(=O)C1CCCN1S(=O)(=O)c1ccc(Cl)cc1 (stereo not drawn),3,-9%,-3.7%,-3%
COc1ccc(S(=O)(=O)NCc2ccco2)cc1NC(=O)c1ccccc1,·,?,0.8%,0%
CN(C)/C=C/C(=O)c1cccc([N+](=O)[O-])c1,5,-2%,-1.7%,-20%
CCCCn1c(=O)[nH]c(=O)c2c1nc(-c1ccc(-c3ccccc3)cc1)n2C,·,-2%,-5.2%,-11%
CC1=Nc2cccc([N+](=O)[O-])c2NC(=O)C1,-1,-4%,6.2%,21%
Cc1onc(-c2c(F)cccc2Cl)c1C(=O)OCn1nnc2ccccc2c1=O,-6,6%,-3.3%,-11%
CCOC(=O)c1cccc(NC(=O)CSc2nnc(-c3cccnc3)n2C)c1,7,-2%,2.5%,-3%
CCCCCCNc1nc(Cl)nc(NC(C)(C)CO)n1,-4,-2%,0.2%,-4%
Cn1nc(C(=O)Nc2sc3c(c2C#N)CCCC3)ccc1=O,2,-24%,-0.1%,-4%
Cc1ccccc1C(=O)Nc1ccnn1C1CCN(Cc2cnn(C)c2)CC1,·,0%,-0.8%,-4%
OCc1cn(-c2ccccc2)nc1-c1ccc(Br)cc1,·,-46%,-0.7%,15%
CCc1cc2c(-c3ccccc3)cc(=O)oc2cc1OCC(C)=O,·,-10%,1.6%,0%
CN(CC(=O)N1CCCCCC1)S(=O)(=O)c1ccc(Br)s1,4,-26%,-3.5%,5%
CC1CCN(C(=O)COC(=O)c2ccc(F)c(S(=O)(=O)N3CCOCC3)c2)CC1,·,-5%,1.2%,-2%
COCCNC(=O)c1onc(CSc2nc3ccccc3[nH]2)c1C(=O)NCCOC,·,3%,2.1%,?
CC1CC(NC(=O)/C(C#N)=C/c2ccc[nH]2)CC(C)(C)C1 (stereo not drawn),-10,-1%,1.0%,-10%
Cc1cc(NC(=O)C2CCCCC2)ncc1NC(=O)c1ccccn1,-5,-33%,0.8%,9%
COC(=O)c1cccc(NC(=O)CSCc2ccccc2)c1,·,-31%,-0.9%,-3%
CSCC[C@H](NC(=O)Nc1ccc(C)cc1C)C(=O)O,·,1%,2.7%,20%
COc1cccc(/C=N/Nc2ccc(S(=O)(=O)O)cc2)c1O,6,-3%,-0.2%,-7%

# Two compounds drawn at random from those above, as already listed:
SMILES,GLA inh pH 4.5,miR-21 FLuc,Rango-impB inh,Rango dissoc inh
CC(=O)c1ccccc1NC(=O)CCN1C(=O)C2CCCCC2C1=O (stereo not drawn),·,·,-2.7%,-8%
CN(c1ccc(C(=O)N2CCCCC2)cc1)S(=O)(=O)c1ccccc1,-1,1%,-0.6%,35%

# Additional results follow:
SMILES,GLA inh pH 4.5,miR-21 FLuc,Rango-impB inh,Rango dissoc inh
COc1cccc(NC(=O)N2CCC(NC(=O)C(Cc3ccccc3F)NC(C)=O)CC2)c1 (stereo not drawn),·,0%,-1.7%,3%
CCn1cc(CN2CCC(C(=O)Nc3cccc(-c4cccc(Cl)c4)c3)CC2)cn1,·,23%,-1.6%,1%
CCOc1ccc(-c2cc(C(=O)N/N=C(\C)c3cccnc3)c3ccccc3n2)cc1,·,-9%,0.0%,0%
CCC(C)Sc1nc2c(cnn2-c2ccc(F)cc2)c(=O)[nH]1 (stereo not drawn),·,-9%,-0.4%,1%
CC(C)C(=O)NC(=S)N1CCc2ccccc21,-7,-14%,-5.0%,?
COC(CN(C)C(=O)c1cn(C)c2ccc(S(=O)(=O)N(C)C3CCCCC3)cc2c1=O)OC,·,0%,-0.3%,-25%
O=[N+]([O-])c1ccc(S(=O)(=O)NCCCc2ccccc2)cc1,·,·,0.4%,-5%
O=C(N[C@@H](c1ccccc1)[C@H](O)c1ccccc1)[C@@H]1CCCN1C(=O)OCc1ccccc1,·,·,-0.7%,-16%
CSc1ccc(/C=N/NC(=O)c2cccc(Cl)c2)cc1,4,-50%,2.2%,8%
c1ccc(N/N=C(\Cc2ncc[nH]2)c2ccccc2)cc1,9,-13%,-5.0%,10%
O=c1[nH]c(C2CCCN(S(=O)(=O)c3cccc(F)c3)C2)nc2c1nnn2Cc1ccccc1 (stereo not drawn),·,-14%,-0.5%,-6%
Cc1cc(Cl)ccc1NC(=S)NCc1ccc(S(N)(=O)=O)cc1,-1,-1%,0.3%,-1%
c1ccc(Cn2c(NCc3ccncc3)nc3ccccc32)cc1,-5,-37%,-2.3%,7%
CN(C(=O)COC(=O)c1cc(S(=O)(=O)N2CCOCC2)ccc1Cl)C1CCS(=O)(=O)C1 (stereo not drawn),·,·,8.0%,5%
O=C(Nc1ccc(OCC(F)(F)C(F)F)c(C(F)(F)F)c1)c1ccccc1O,-14,24%,0.1%,4%
CC(C)(C)NC(=O)C(=O)NCc1ccncc1,0,-3%,0.1%,13%
CCc1nnc(NC(=O)CSc2nnc(COc3ccc(C)cc3)n2-c2ccccc2)s1,3,0%,4.6%,1%
CCC(=O)N1CCc2cc(S(=O)(=O)CCC(=O)N3CCN(c4ccc(Cl)cc4)CC3)ccc21,·,12%&27%,-3.6%,-12%
O=C(Nc1ccccc1N1CCCC1)c1cc(Cl)ccc1Cl,5,4%,0.9%,-8%
COCCNC(=O)C(c1ccccc1)N(Cc1cccs1)C(=O)Cn1nnc2ccccc21 (stereo not drawn),-5,2%,1.2%,-2%
CCCCn1c(SCC(=O)NC2CCCC2)nc2ccccc2c1=O,·,·,1.6%,-21%
Cc1ccc(C)c(OCc2cc(C(=O)N3CCc4sccc4C3)no2)c1,·,-3%,-3.7%,-12%
Cc1nn(CC(=O)Nc2ccc(Cl)cn2)c(C)c1Br,-6,-18%,?,-22%
CCOC(=O)c1ccc(Nc2cc3ccccc3c(=O)[nH]2)cc1,·,·,0.5%,-16%
Cc1nnc(NC(=O)C2CCCN(S(=O)(=O)c3ccccc3C(F)(F)F)C2)s1 (stereo not drawn),1,0%,?,-2%
CCN(Cc1ccccc1)C(=O)C1CCN(C/C(C)=C/c2ccccc2)CC1,0,-9%,-0.9%,-2%
O=C(Nc1ccc(C(=O)N2CCCCC2)cc1)C1=CSCCO1,·,-44%,-0.2%,-2%
Cc1cc(C)n(-c2nc3ccccc3c(=O)n2OCC(=O)N(C)C)n1,-1,-8%,-0.2%,4%
Cc1nnc(C)c2c(C)n(-c3ccc(Br)cc3)c(C)c12,-3,-5%,·,·
Cc1cc(C(=O)CSc2nc3ccccc3o2)c(C)n1CC1CCCO1 (stereo not drawn),-5,-35%,0.7%,1%

# Given with two lines to a compound: 3 of the compounds above
# Each structure is followed by: GLA inh pH 4.5	miR-21 FLuc	Rango-impB inh	Rango dissoc inh
CCC(=O)N1CCc2cc(S(=O)(=O)CCC(=O)N3CCN(c4ccc(Cl)cc4)CC3)ccc21
 : ·	12%&27%	-3.6%	-12%
O=C(Nc1ccccc1N1CCCC1)c1cc(Cl)ccc1Cl
 : 5	4%	0.9%	-8%
COCCNC(=O)C(c1ccccc1)N(Cc1cccs1)C(=O)Cn1nnc2ccccc21 (stereo not drawn)
 : -5	2%	1.2%	-2%

# (continued)
SMILES,GLA inh pH 4.5,miR-21 FLuc,Rango-impB inh,Rango dissoc inh
CC1CCC(NC(=O)COC(=O)c2n[nH]c(=O)c3ccccc23)CC1 (stereo not drawn),·,·,-0.1%,-2%
CCOc1ccc(-n2c(=O)c3sccc3n(CC(=O)Nc3cccc(OC)c3)c2=O)cc1,1,-2%,-1.1%,12%
C=CCNc1nc(Cl)nc(NCc2ccco2)n1,·,-13%,-2.9%,1%
N#Cc1c(N2CCOCC2)nsc1-c1ccc(C(F)(F)F)cc1,-7,-63%,4.0%,-6%
C=CCn1c(SCC(=O)Nc2ccccc2C)nc(O)cc1=O,·,7%,?,2%
CC(NC(=S)Nc1c(Cl)cccc1OC(F)F)C(C)(C)C (stereo not drawn),1,-8%,2.0%,8%
CCOc1ccc(CNC(=O)C2CCN(S(=O)(=O)N3CCCC3)CC2)cc1OC,2,0%,-0.3%,8%
CCn1c2ccccc2c2cc(N=C3SC(CC(=O)Nc4ccccc4OC)C(=O)N3CCOC)ccc21 (stereo not drawn),-3,10%,-1.3%,28%
CCn1c(SCC(=O)N/N=C/c2ccncc2)nc2ccccc21,1,1%,-0.2%,-2%
CCC(=O)NCCCNc1nc2c(C)cccc2cc1C#N,2,-5%,?,?
Cc1ccc(C)c(N2CCN(S(=O)(=O)c3ccc4[nH]c(=O)ccc4c3)CC2)c1,·,-3%,-6.4%,-22%
CCc1ccc(CNc2ccc(O)cc2)cc1,4,21%,-0.1%,-3%
Cc1nonc1CC(=O)N1CCc2c([nH]c3ccccc23)C1c1ccccc1F (stereo not drawn),2,1%,-6.6%,9%
O=C(Nc1sc2c(c1C(=O)NCc1cccnc1)CCCC2)c1ccco1,-5,0%,?,-13%
COc1cccc(C(=O)OCCNC(=O)c2cccnc2)c1,·,1%,-1.3%,2%
COc1ccccc1C(CC(N)=O)c1ccco1 (stereo not drawn),7,4%,-1.2%,0%
O=C(OCC(=O)N1CCCCC1)c1cccs1,·,·,-0.6%,2%

# Screens from PubChem.
